Bioassay records deposited in PubChem by ICCB-Longwood Screening Facility, Harvard Medical School.
Anaer choline gr = inhibitors of anaerobic choline-dependent gram-negative bacterial growth | AID 1963822 | calls only | 55,000 compounds, 0.2% hits | Gram-negative bacterium anaerobic choline minimal medium, absorbance growth; stronger effect = lower value; many inactives read as strong as hits in the columns shown;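 active means growth z-score on choline under -2 at 7 or 20 h with little or no fall on glycerol, limits in tiers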;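 further: stock transfer was 300 nL into about 50 µL; the organism is E. coli; final concentration not given here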
Anaer choline gr early = further read-out of Anaer choline gr, marked with its call; z-score; measured here: choline growth z-score, timepoint 1;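 score of optical density at 7 h as mean of two plates; lower means less growth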
The depositor's hits bear a star; i = inactive; & = joins results of further samples.

1	COc1ccc(Cl)cc1NC(=O)CCc1nc(CSc2nc3ccccc3o2)no1
2	O=C(Nc1ccccc1)Nc1ccc(OCc2cc(=O)n3ccccc3n2)cc1
3	CC(C)CNC(=O)C1CCCN(c2ncnc3c2oc2ccccc23)C1 (stereo unspecified)
4	COCCN1CC(O)=C(c2nc(C)c(C)s2)C1=N
5	O=C(NCC1CCCO1)c1cccc(C(=O)NCC2CCCO2)n1 (stereo unspecified)
6	CC1CCN(CC2CCN(C(=O)Nc3ccc(C(=O)NCc4ccc(Cl)cc4)cc3)CC2)CC1
7	CCc1cccc(NC(=O)C(CC)Sc2nnc(-c3ccccc3NC(C)=O)c(=O)[nH]2)c1 (stereo unspecified)
8	O=C(Cn1nc(N2CCN(c3ccccc3)CC2)ccc1=O)Nc1ccc2c(c1)OCO2

Compound | 1 | 2 | 3 | 4 | 5 | 6 | 7 | 8
Anaer choline gr | i | i | i | i | i | i | i | i
Anaer choline gr early | 0.73 | -0.17 | -0.87 | 0.13 | -0.96 | -1.1 | 0.26 | -0.79

9	Cc1ccc(-c2cnnc(-n3nc(C)c4c3NC(=O)CC4c3cc(C)ccc3C)n2)cc1 (stereo unspecified)
10	O=C(NC1CCCCC1)C1CCN(c2ccc3cc(S(=O)(=O)N4CCCCC4)ccc3n2)CC1
11	COc1cccc(C(=O)Nc2ccc3nc(N4CCC(C)CC4)cc(C)c3c2)c1
12	CS(=O)(=O)N1CCCC1c1ccccc1F (stereo unspecified)
13	O=c1[nH]nc2ccc(Sc3cccc(F)c3)nn12
14	Fc1ccccc1N1CCN(c2nc3ccccc3nc2C(F)(F)F)CC1
15	O=C1Nc2ccccc2Oc2cc(Cl)c(S(=O)(=O)N3CCCC3)cc21
16	FC(F)(F)c1ccc(CNC2=NCCNC23CCOCC3)cc1

Compound | 9 | 10 | 11 | 12 | 13 | 14 | 15 | 16
Anaer choline gr | i | i | i | i | i | i | i | i
Anaer choline gr early | 0.81 | 0.01 | -0.19 | 0.57 | -0.33 | -0.03 | -0.01 | -1.7

A second format for some results above:
#9 Cc1ccc(-c2cnnc(-n3nc(C)c4c3NC(=O)CC4c3cc(C)ccc3C)n2)cc1 (stereo unspecified)
  Anaer choline gr = i	Anaer choline gr early = 0.81

#10 O=C(NC1CCCCC1)C1CCN(c2ccc3cc(S(=O)(=O)N4CCCCC4)ccc3n2)CC1
  Anaer choline gr = i	Anaer choline gr early = 0.01

#11 COc1cccc(C(=O)Nc2ccc3nc(N4CCC(C)CC4)cc(C)c3c2)c1
  Anaer choline gr = i	Anaer choline gr early = -0.19

#12 CS(=O)(=O)N1CCCC1c1ccccc1F (stereo unspecified)
  Anaer choline gr = i	Anaer choline gr early = 0.57

(listing goes on)
17	C[C@@]1(O)[C@H](O)[C@@H](CO)O[C@H]1n1cnc2c(NC3CCCC3)nc(Cl)nc21
18	CC(=O)N1CCc2cc(S(=O)(=O)N3CCC(CC(=O)N(C)Cc4ccccc4)CC3)ccc21
19	Cc1ccc2ncc(C(=O)c3ccccc3)c(N3CCOCC3)c2c1
20	O=C(Nc1cccc(Cl)c1)c1nnc(COCC(=O)N2CCN(c3ccccn3)CC2)s1
21	COCCN1CCN(C2CCN(C(=O)NC3CCCCC3)CC2)C(=O)C1=O
22	COc1ccc(C2CC(=O)C3=C(C2)Nc2onc(C)c2C3c2ccccc2OC)cc1 (stereo unspecified)
23	O=C(CSC1=Nc2ccccc2N=C(c2ccc(Cl)cc2)C1)Nc1ccc2c(c1)OCO2
24	COc1cccc(NC(=O)Cn2c(=O)n(Cc3nc(C)no3)c(=O)c3ccccc32)c1

Compound | 17 | 18 | 19 | 20 | 21 | 22 | 23 | 24
Anaer choline gr | i | i | i | i | i | i | i | i
Anaer choline gr early | 0.02 | 0.21 | -1.4 | -0.24 | 0.36 | 0.7 | 0.58 | -0.11

25	CCOc1ccc(-n2ccc(=O)c(C(=O)Nc3cccc(Cl)c3)n2)cc1
26	Cc1nc2scc(C)n2c(=O)c1NC(=O)C(C)C
27	Cc1ccc2oc(SCC(=O)N3CCc4ccccc4C3)nc2n1
28	CC1(C(=O)NCc2ccc3c(c2)OCO3)CCN(C(=O)C2CC2)CC1
29	Cc1ccc(C)c(NC(=O)c2c(-c3ccccc3Cl)noc2C)c1
30	Cc1cc(N2CCOCC2)n2nc(CN3CCC4(CC3)OCCO4)nc2n1
31	Cc1ccc(-n2nc(C(=O)NCCCN3CCCC3)c3c4ccccc4n(C)c3c2=O)cc1
32	CCOc1ccc(C(=O)N2CCCC(c3nc(-c4ccc(NC(C)=O)cc4)no3)C2)cc1 (stereo unspecified)

Compound | 25 | 26 | 27 | 28 | 29 | 30 | 31 | 32
Anaer choline gr | i | i | i | i | i | i | i | i
Anaer choline gr early | -0.88 | 0.48 | -0.52 | -0.14 | 0.53 | 1.6 | 1.4 | -1.5

33	O=C(c1cc(-c2ccc(F)cc2)n[nH]1)N1CCn2c1nc1ccccc12
34	CC(C)c1nnc2c(SCc3ccc(F)cc3)nc3ccccc3n12
35	O=C(NCc1ccccn1)c1ccc2c(c1)N(Cc1c(F)cccc1Cl)C(=O)c1ccccc1S2
36	O=C(Nc1ccc(F)cc1Cl)C1CCN(C(=O)c2cccn2-c2cccnc2)CC1
37	CCn1c2ccccc2c2cc(NC(=O)Cc3cn(C)c4ccccc34)ccc21
38	Cc1nn(-c2ccc(-c3ccccc3)nn2)c(C)c1S(=O)(=O)NCCC(C)C
39	CC(=O)N1c2ccc(S(=O)(=O)NC(Cc3ccccc3)C(=O)Nc3ncccc3C)cc2CC1C (stereo unspecified)
40	Cc1cccc(-c2cncc(C(=O)NCCc3ccc(Cl)cc3)c2)c1

Compound | 33 | 34 | 35 | 36 | 37 | 38 | 39 | 40
Anaer choline gr | i | i | i | i | i | i | i | i
Anaer choline gr early | 0.72 | 0.83 | 0.48 | 0.42 | 1 | 0.71 | 0.25 | 1.1

41	CCn1c(CN(C)S(=O)(=O)c2ccc(C(C)(C)C)cc2)nc2cc(C(=O)N(C)C)ccc21
42	CCC(C)NC(=O)c1ccc2c(c1)N(Cc1ccccc1)CCS2 (stereo unspecified)
43	CCN(CC)C(=O)[C@]1(c2ccccc2)C[C@@H]1CN
44	Cn1nc(-c2nc(C3CC3)no2)c2c1CCN(S(=O)(=O)c1cccs1)C2
45	Cc1cc(C)c(S(=O)(=O)Nc2cnc(N3CCNCC3)c(C(=O)N(C)C)c2)cc1C
46	Cc1cccc(N2CCN(C(=O)CSc3nc4ccccc4nc3N3CCCC3)CC2)c1C
47	COCCCNC(=O)c1ccc(-c2cc(N3CCCC3)ncn2)cc1
48	Cc1nn(C)cc1CN(C)C(=O)c1cnn2c(C(F)(F)F)cc(-c3ccc(Br)cc3)nc12

Compound | 41 | 42 | 43 | 44 | 45 | 46 | 47 | 48
Anaer choline gr | i | i | i | i | i | i | i | i
Anaer choline gr early | 0.95 | 1.5 | 0.14 | 0.4 | 0.2 | -0.18 | -0.34 | -2.2

Compound profiles, as listed above.
Shown for O=C1Nc2ccccc2Oc2cc(Cl)c(S(=O)(=O)N3CCCC3)cc21 = Anaer choline gr = i; Anaer choline gr early = -0.01
Shown for Cc1ccc(-c2cnnc(-n3nc(C)c4c3NC(=O)CC4c3cc(C)ccc3C)n2)cc1 (stereo unspecified) = Anaer choline gr = i; Anaer choline gr early = 0.81
Shown for O=C(CSC1=Nc2ccccc2N=C(c2ccc(Cl)cc2)C1)Nc1ccc2c(c1)OCO2 = Anaer choline gr = i; Anaer choline gr early = 0.58

Next records:
49	O=S(=O)(c1cnc[nH]1)N1CCCC1c1cccc(F)c1 (stereo unspecified)
50	CC1CCN(C(=O)c2cccc(N3C(=O)CCS3(=O)=O)c2)CC1
51	CC(C)=CC[C@@H](O)C1=CC(=O)c2c(O)ccc(O)c2C1=O
52	COC(=O)c1c(NC(=O)c2sc3ccccc3c2Cl)sc2c1CCN(C(C)C)C2
53	O=C(CN1C(=O)CCc2cc(S(=O)(=O)N3CCCC3)ccc21)NC1CC1
54	CCc1noc2nc(C)nc(NCCC3=CCCCC3)c12
55	CCC(C)NC(=O)CSc1nc2ccccc2n(CC)c1=O (stereo unspecified)
56	COCCn1c(CNC(=O)c2ccc(F)cc2)nc2cccnc21

Compound | 49 | 50 | 51 | 52 | 53 | 54 | 55 | 56
Anaer choline gr | i | i | i | i | i | i | i | i
Anaer choline gr early | -0.48 | 0.27 | 0.78&0.21 | -1.4 | 1.4 | -0.74 | 0.08 | -2.1

57	Cc1nsc(NC(=O)c2oc3ccc(Cl)cc3c2C)n1
58	Cc1nn(-c2ccccc2)c(N2CCC(C(=O)NC3CC3)CC2)c1NC(=O)C(C)C
59	CCC(=O)N1CCCC1c1nc2ccccc2n1C (stereo unspecified)
60	CN(C)c1ccc(C(CNC(=O)c2ccc(Br)cc2)N2CCCC2)cc1 (stereo unspecified)
61	COC(=O)c1ccccc1NC(=O)c1ccc(-c2nc(CSc3ccccc3)c(C)o2)cc1
62	Cc1oc2ncnc(N3CCCC(C(=O)Nc4cccc(Cl)c4)C3)c2c1C (stereo unspecified)
63	CNCCc1ccccn1
64	COc1cccc(NC(=O)c2ccnc(N3CCC(C(=O)NC4CCCCC4)CC3)c2)c1
65	O=C(NC1CCCC1)C1CCN(c2cc(-c3cccc(F)c3)ncn2)CC1
66	CN(C)c1cc(OC2CCN(C(=O)c3ccoc3)C2)ncn1 (stereo unspecified)

Compound | 57 | 58 | 59 | 60 | 61 | 62 | 63 | 64 | 65 | 66
Anaer choline gr | i | i | i | i | i | i | i | i | i | i
Anaer choline gr early | 0.15 | 0.09 | 1.2 | 0.17 | 0.9 | 0.65 | 0.31&0.72 | -0.44 | 0.07 | 0.73

The list is partial; the hit share may differ from the screen's.
